Bioassay records as filed in PubChem BioAssay.
MARV entry inh – inhibitors of Marburg virus binding or cell entry | Marburg virus pseudotyped entry inhibition, cell reporter; control for the full effect not named in the record; about a third of the inactives were read at about 46 µM | Potency, µM (doses to about 37.8 µM), without a hit: at the highest dose activity change, negative = inhibition, hits mostly inhibitors | 300,000 tested, 1.8% active | AID 540276; active = well fitted inhibition curve with a large enough effect; inconclusive = small, poorly fitted or top-dose-only effect, or effect the other way; inactive = flat fitted curve, though single readings scatter; tested in HEK293 cells; about a fifth of its hits are not listed in these tables; further: luciferase read-out
Lassa entry inh – inhibitors of Lassa virus binding or cell entry. 300,000 tested, 1.2% active. AID 540256. Potency, µM (highest dose often 37.9 µM), for the others: top-dose activity change, negative = inhibition, actives largely listed as inhibitors. Lassa virus pseudotype entry inhibition, cell reporter; control for the full effect not named in the record; active means well fitted inhibition curve with a large enough effect; inconclusive means small, poorly fitted or top-dose-only effect, or effect the other way; inactive means flat fitted curve, though single readings scatter; tested in HEK293 cells; further: nearly all actives have a fitted effect of over 50% in size; luciferase read-out
Active calls of the source: *; ? = inconclusive; / = not tested or not shown; & = joins results of further samples; [ ] = remark or other dose. On the % scale 0 is the no-effect control and ±100 the full control effect; potency means the concentration at half of the fitted maximal effect.

SMILES	MARV entry inh	Lassa entry inh
Cn1ccc2c(C=Cc3ccc(F)cc3)cc3c(c21)C1CCC3O1 (stereo not drawn)	/	?
Cc1ccc(NC(=O)c2ccnc(N3CCCC3)c2)cc1-c1ccc(C(=O)NCC2CC2)cc1	/	?
O=C1Nc2ccc(-c3cccnc3)cc2C1=Cc1cc(Br)c(O)c(Br)c1	/	12.5µM*
CC(C)COC(=O)c1ccc2[nH]c(O)c(C=Nc3ccc(S(N)(=O)=O)cc3)c2c1	/	0.996µM*
CN(C)CCCn1c(-c2nonc2N)nc2cnccc21	/	4.0%
C[C@H]1N[S+](=O)([O-])c2ccc(Br)cc2O[C@@H]1c1ccccc1	/	-11.6%[46.1 µM]
CCCCCCN1C[C@@H](O)[C@H](n2cc(C3CC3)nn2)C[C@H]1c1ccccc1	/	?
Cc1ccc(C(=O)NC2CCC2)cc1-c1ccc(C(=O)NCC2CC2)cc1	/	11.2µM*
CS(=O)(=O)CCNCc1ccoc1-c1ccc2ncnc(Nc3ccc(OCc4ccccc4)cc3)c2c1	/	?
Fc1ccc(-c2c(-c3ccncc3)nc3n2CCS3)cc1	/	?
CCCN(CCS(C)(=O)=O)Cc1ccc(-c2ccc3ncnc(Nc4ccc(OCc5cccc(F)c5)c(Cl)c4)c3c2)o1	/	?
COc1ccc(CNS(=O)(=O)c2cc(Br)ccc2Br)cc1	/	0.0%[46.1 µM]
C[C@H]1CN(c2ccccc2)C(=O)[C@H]1CC(=O)Nc1ccc(Br)cc1	/	-4.0%[46.1 µM]
Cc1ccc(C(=O)NC(C)C)cc1-c1ccc(C(=O)NCC2CC2)cc1	/	?
Cc1ccc(Nc2ccnc(Nc3cccc(C(N)=O)c3)n2)cc1O	/	?
C=CC1=C2C=C(C3CC3)N(CCCCO)C=C2C(=O)C(C)(OC(=O)c2ccco2)C1=O (stereo not drawn)	-6.8%&-6.8%[14.2 µM]	/
C=CC[C@@]1(c2ccc(Br)cc2OC)Oc2ccccc2-c2nccnc21	?	/
C=CC1=C2C=C(C3CC3)N(CCN3CCOCC3)C=C2C(=O)C(C)(OC(=O)c2ccco2)C1=O (stereo not drawn)	15.7%&15.7%[14.2 µM]	/
CO[C@H](C1CCCCC1)[C@H](C)/C=C/CC(=O)OCCCc1ccccc1	5.4%[14.2 µM]	/
COc1ccc(Oc2cccc3c2S(=O)(=O)N(C2CC2)C[C@@H](COCc2ccccc2)O3)cc1	?	/
COc1ccc(COC(=O)N/N=C2/C[C@@H](O)[C@@H](O)[C@@H]3[C@@H]4C(=O)N(Cc5ccc6c(c5)OCO6)C(=O)[C@H]4CC[C@@H]23)cc1	4.1%[14.2 µM]	/
CC1CCCCC1S(=O)C1=C(C(=O)O)CCCC1 (stereo not drawn)	6.8%[46.1 µM]	/
C=CCOC(=O)C(C(=O)CC)C(NC(=O)OC)c1ccc(F)cc1 (stereo not drawn)	-24.9%[14.2 µM]	/
COc1ccccc1C[C@@H](Cc1nc2ccccc2[nH]1)c1nc2ccccc2[nH]1	?	/
CC(C)N1C(=S)N=C2C=C(C(F)(F)F)C=CC21 (stereo not drawn)	-17.8%[46.1 µM]	/
CCC1CN2CCC1CC2[C@@H](Oc1cc2ccccc2c2ccccc12)c1ccnc2ccc(O)cc12 (stereo partly drawn)	?	/
C=C1CN2C(=NC(c3ccccc3)C(C(=O)OC)=C2C)O1 (stereo not drawn)	-0.1%[14.2 µM]	/
COc1ccc([C@]23Cc4cc(OC)c(OC)cc4[C@H](O2)C2=C(CCCC2=O)O3)cc1	6.0%[14.2 µM]	/
CCOC(=O)N/N=C1\C[C@@H](O)[C@@H](O)[C@@H]2[C@@H]3C(=O)N(Cc4ccccc4)C(=O)[C@@H]3CC[C@H]12	24.9%[14.2 µM]	/
CCN1C(=O)[C@H]2[C@H]3[C@H](O)[C@H](O)C/C(=N\NC(=O)OCc4ccccc4)[C@@H]3CC[C@H]2C1=O	-8.4%[14.2 µM]	/

One compound at a time, as listed above. Screens in order: MARV entry inh	Lassa entry inh
CC1CCCCC1S(=O)C1=C(C(=O)O)CCCC1 (stereo not drawn) across the screens: 6.8%[46.1 µM]	/
COc1ccc([C@]23Cc4cc(OC)c(OC)cc4[C@H](O2)C2=C(CCCC2=O)O3)cc1 across the screens: 6.0%[14.2 µM]	/

Later entries
SMILES	MARV entry inh	Lassa entry inh
CCOC(=O)CCN1C(=O)[C@H]2[C@H]3[C@H](O)[C@H](O)C/C(=N/NC(=O)OCc4ccc(OC)cc4)[C@H]3CC[C@@H]2C1=O	22.5%[14.2 µM]	/
CC1=NC=CC2C1=Nc1ccccc12 (stereo not drawn)	-0.6%	/
COC(=O)CC1c2ccccc2C=C(/C=C/c2ccc3c(c2)OCO3)N1C(=O)OC (stereo not drawn)	-18.2%[14.2 µM]	/
COC(=O)N[C@@H](C=Cc1ccccc1)C[N+](=O)[O-]	7.3%[14.2 µM]	/
COc1cc(/C=N\n2nnnc2N)ccc1O	10.1%	/
C[C@@H]1NC(=O)[C@@H](C)COC(=O)[C@H](C)NC(=O)[C@@H](C)COC1=O	?	/
COC(=O)/C(C#N)=C1\SC=C(C)N1c1ccccc1	4.3%	/
CCCCCCN1C[C@H](O)[C@@H](n2cc(C3CC3)nn2)C[C@H]1c1ccc(Cl)cc1	?	/
COc1cc2c(c(OC)c1OC)C(c1ccccc1)(c1ccccc1)CC2NC(=O)C(F)(F)F (stereo not drawn)	-9.6%[14.2 µM]	/
COCCN1C(=O)NC(c2ccco2)C(C(=O)OC)=C1C (stereo not drawn)	3.0%[14.2 µM]	/
CC(C)[C@@H]1Cc2c(C#N)c(N)sc(=S)c2CO1	0.9%	/
COc1ccc(O[C@H]2C=C[C@@H](c3ccccc3)O[C@H]2CON=C(C)CCN2CCCc3nc(C)c(C)cc32)cc1	?	/
CCOC(=O)CN1C(=O)[C@]2(OCCC=C[C@@H]2C)c2cc(OC)ccc21	12.7%[14.2 µM]	/
C=CC1=C2C=C(C3CC3)N(CCCOC(C)C)C=C2C(=O)C(C)(OC(=O)c2ccco2)C1=O (stereo not drawn)	-13.6%&-13.6%[14.2 µM]	/
Cc1ccccc1Nc1oc(-c2ccccc2)nc1C=Cc1ccccc1	-21.3%[14.2 µM]	/
C[C@@H]1C[C@H]2[C@@H](Cc3ccccc3)C(=O)N3[C@@H](C[C@@H](C)[C@@H]3c3ccccc3)[C@@H](Cc3ccccc3)C(=O)N2[C@H]1c1ccccc1	?	/
CCCNC(=O)OC[C@@H]1O[C@H](CCO/N=C(\C)CCN2CCCc3nc(C)c(C)cc32)C=C[C@@H]1Oc1ccc(OC)cc1	?	/
COC(=O)C1=C[C@@H]([C@@H](C)[C@H](OC)c2ccccc2Br)[C@@H]2OCCC[C@H]12	?	/
COc1cccc([C@@H]2C(C#N)=C(N)Oc3cc(C)[nH]c(=O)c32)c1OC	-1.0%	/
CCCCOc1ccc(CS[C@@H](CC(=O)O)C(=O)O)cc1	4.6%	/
COC(=O)CC=C[C@@H](C)[C@H](NC(=O)OC)c1ccccc1Br	-28.9%[14.2 µM]	/
CC1C=CC(C(C2C(=O)CC(C)(C)CC2=O)C2C(=O)CC(C)(C)CC2=O)S1 (stereo not drawn)	-6.3%[46.1 µM]	/
COc1ccc(O[C@@H]2[C@H](O)CO[C@H]2/C=C/C#Cc2ccccc2)cc1	7.5%[14.2 µM]	/
CCN1C(=O)[C@@H]2[C@H]3C(=CC[C@@H]2C1=O)C1(OCCCO1)[C@H]1O[C@@H]1[C@H]3O	?	/
Cc1noc(C)c1S(=O)(=O)N1CCc2nc(COc3ccccc3)c3c(c2C1)CO[C@@H](C)C3	17.7%&17.7%[14.2 µM]	/
COC(=O)C[C@H]1c2ccccc2[C@@H]2C(=C[C@@H](C)[C@H]3C(=O)N(c4ccccc4)C(=O)[C@H]32)N1C(=O)OC	10.2%[14.2 µM]	/
CC=CC(=O)C[C@H]1CC[C@@H](C)[C@@H](CCO)O1	?	/
COC(=O)C1=C[C@]2(c3ccccc3C[C@H](OC)[C@@H]2C)[C@H]2C=C[C@H]1C2	?	/
COc1cc2c(cc1OC)[C@@]1(c3ccccc3)CCCC[C@H]1[C@@H]2NC(=O)C(F)(F)F	-2.4%[14.2 µM]	/
CCOc1ccc2nc(N[C@@](NC(=O)CC)(C(=O)OC)C(F)(F)F)sc2c1	2.0%	/
CCCCCC(=O)N1C[C@@H](O)[C@H](n2cc(C3CC3)nn2)C[C@H]1c1ccc(Cl)cc1	?	/
CCN(CC)/N=N/C1=C2C(C)=CC(C)=NC2N=N1 (stereo not drawn)	10.5%	/
COc1cc([C@@H]2C(C(C)=O)=C(O)C(=O)N2c2ccc(Br)cn2)ccc1O	-9.4%	/
COC(=O)CC=C[C@@H](C)[C@H](OC)c1cc(OC)ccc1Br	3.5%[14.2 µM]	/
CC(C)CON=C1C[C@@H](O)[C@@H](O)[C@@H]2[C@H]3C(=O)N(c4ccc(F)cc4F)C(=O)[C@@H]3CC[C@@H]12	?	/
CCCCOCC1CN(CCCC)S(=O)(=O)c2c(cccc2N2CCCC2)O1 (stereo not drawn)	?	/
CCN(CC)CCN1C(=O)C(O)=C(C(=O)c2ccco2)[C@@H]1c1ccccn1	16.1%[46.1 µM]	/
COc1cccc(OC)c1OCCNC[C@@H]1CSc2ccccc2O1	25.9µM*	/
CCOC(=O)CN1C(=O)NC(c2cccc(F)c2)C(C(=O)OC)=C1C (stereo not drawn)	-23.8%[14.2 µM]	/
O[C@H]1CN(CC2CCCCC2)[C@@H](c2ccc(Cl)cc2)C[C@H]1n1cc(-c2ccc(F)cc2)nn1	?	/
c1ccc(-c2ccc([C@H](c3ccccc3)n3ccnc3)cc2)cc1	-55.7%	/
Cc1ccc(S(=O)(=O)N[C@H]2COC(=O)[C@@H](C)COC(=O)C/C=C\[C@H]2C)cc1	7.3%[14.2 µM]	/
CCc1cc2c(nc1CC)CCN(CCC(C)=NOC[C@@H](O)[C@H]1O[C@@H]3OC(C)(C)O[C@H]3[C@@H]1O)C2	-6.4%[14.2 µM]	/
CC(C)=NO[C@@H](C)CN1CCCc2nc(C)c(C)cc21	-13.5%[14.2 µM]	/
C#CCN1C(C)=C(C(=O)OC)[C@@H](c2cccc([N+](=O)[O-])c2)C(C(=O)OCC)=C1C	?	/
COc1ccccc1NC(=O)OC[C@@H]1CSCCS(=O)(=O)N1	?	/
CCN1C(=NCCc2ccccn2)NC(c2cccs2)C(C(=O)OC)=C1C (stereo not drawn)	?	/
CCN1C(=NCc2cc(OC)c(OC)c(OC)c2)NC(c2ccccc2)C(C(=O)OC)=C1C (stereo not drawn)	?	/
CC(C)=CCCC(C)=CCN1C(=O)[C@]2(O[C@H](C)CC3=CCCC32)c2c(Br)cccc21 (stereo partly drawn)	10.2%[14.2 µM]	/

Of the compounds above, 14 contain four or more nitrogen atoms:
SMILES	MARV entry inh	Lassa entry inh
Cc1ccc(NC(=O)c2ccnc(N3CCCC3)c2)cc1-c1ccc(C(=O)NCC2CC2)cc1	/	?
CN(C)CCCn1c(-c2nonc2N)nc2cnccc21	/	4.0%
CCCCCCN1C[C@@H](O)[C@H](n2cc(C3CC3)nn2)C[C@H]1c1ccccc1	/	?
CS(=O)(=O)CCNCc1ccoc1-c1ccc2ncnc(Nc3ccc(OCc4ccccc4)cc3)c2c1	/	?
CCCN(CCS(C)(=O)=O)Cc1ccc(-c2ccc3ncnc(Nc4ccc(OCc5cccc(F)c5)c(Cl)c4)c3c2)o1	/	?
Cc1ccc(Nc2ccnc(Nc3cccc(C(N)=O)c3)n2)cc1O	/	?
COc1ccccc1C[C@@H](Cc1nc2ccccc2[nH]1)c1nc2ccccc2[nH]1	?	/
COc1cc(/C=N\n2nnnc2N)ccc1O	10.1%	/
CCCCCCN1C[C@H](O)[C@@H](n2cc(C3CC3)nn2)C[C@H]1c1ccc(Cl)cc1	?	/
CCCNC(=O)OC[C@@H]1O[C@H](CCO/N=C(\C)CCN2CCCc3nc(C)c(C)cc32)C=C[C@@H]1Oc1ccc(OC)cc1	?	/
CCCCCC(=O)N1C[C@@H](O)[C@H](n2cc(C3CC3)nn2)C[C@H]1c1ccc(Cl)cc1	?	/
CCN(CC)/N=N/C1=C2C(C)=CC(C)=NC2N=N1 (stereo not drawn)	10.5%	/
O[C@H]1CN(CC2CCCCC2)[C@@H](c2ccc(Cl)cc2)C[C@H]1n1cc(-c2ccc(F)cc2)nn1	?	/
CCN1C(=NCCc2ccccn2)NC(c2cccs2)C(C(=O)OC)=C1C (stereo not drawn)	?	/

Some of the compounds tested; the hit share may differ from the screen's.
